# From PubChem
# VDR inh = inhibitors of human vitamin D receptor | Potency, µM, for the others: max response, negative = inhibition, actives largely listed as inhibitors | 0.93% of 400,000 active | AID 504847 | VDR-SRC2-3 peptide fluorescence polarization, 2 h | P11473; active = well fitted inhibition curve with a large enough effect; inconclusive = small, poorly fitted or top-dose-only effect, or another doubt; inactive = no such curve, though single readings can be large or run the other way; note: series mostly up to about 120 µM
# Target sequence (P11473 whole entry, looked up): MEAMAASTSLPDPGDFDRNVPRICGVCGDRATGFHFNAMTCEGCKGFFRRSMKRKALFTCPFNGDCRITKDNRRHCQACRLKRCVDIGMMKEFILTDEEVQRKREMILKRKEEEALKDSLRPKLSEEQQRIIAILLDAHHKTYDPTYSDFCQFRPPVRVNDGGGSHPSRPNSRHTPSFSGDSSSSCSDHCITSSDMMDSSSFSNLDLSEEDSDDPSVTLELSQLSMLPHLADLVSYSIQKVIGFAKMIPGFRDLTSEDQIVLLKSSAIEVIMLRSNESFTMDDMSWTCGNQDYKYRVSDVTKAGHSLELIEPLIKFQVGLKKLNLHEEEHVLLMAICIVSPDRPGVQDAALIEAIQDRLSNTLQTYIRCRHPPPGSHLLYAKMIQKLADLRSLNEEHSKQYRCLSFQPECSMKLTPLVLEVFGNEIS
#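 Compounds are added to VDR with labelled SRC2-3 coactivator peptide and held 2 h at room temperature. Inhibition of the VDR–peptide interaction is then read as a change in fluorescence polarization.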
# * marks the source's active call; other numbers are inactive results; u = inconclusive; & = joins results of further samples. % is set by controls: 0 for no effect and ±100 for the full control effect; potency is the fitted concentration of half-maximal effect.
Molecule,VDR inh
O=C(/C=C/c1ccc(Cl)cc1Cl)NCc1ccncc1,18%
CN(Cc1ccco1)c1ncnc2ccc(-c3ccccc3C(F)(F)F)cc12,32µM*
CCOC(=O)C1=C(CN2CCCCC2)NC(=O)NC1c1cc(C)ccc1C (centres undefined),13%&11%
Cc1ccc(N2CCN(C(=S)Nc3ccc(Cl)cc3)CC2)cc1,2%
COCCn1c(SCC(=O)NC2CCCC2)nnc1C(C)C,-2%
CCOC(=O)CSc1nc2sc(C)c(C)c2c(=O)n1C,4%
Cc1cc(C)c(S(=O)(=O)N2CCC(N3CCN(Cc4ccc(F)cc4)C(=O)C3=O)CC2)c(C)c1,16%
COc1cc(C2N(c3ccccc3)CCN2c2ccccc2)ccc1OC(C)=O,8%
COc1cccc(CN(C(=O)c2ccc(C(C)(C)C)cc2)C2CCS(=O)(=O)C2)c1 (centres undefined),2%
O=C1NC(c2ccccc2)=CC(c2ccccc2)N1 (centres undefined),14%
CCOc1c(Br)cc(CNc2ncn[nH]2)cc1OC,2%
COc1ccc(NS(=O)(=O)c2cccc(C(=O)NCc3ccco3)c2)cc1,-17%
CCOC(=O)c1n[nH]n2c1nc(=S)c1ccccc12,-6%
NS(=O)(=O)c1ccc(CCNC(=O)COC(=O)c2cc([N+](=O)[O-])ccc2N2CCOCC2)cc1,14%
CC(C)(C)NC(=O)COC(=O)c1ccc(Cl)cc1O,23%
CCN1CCCc2cc(CN(CCN3CCOCC3)C(=S)Nc3ccc(OC)c(OC)c3)ccc21,7%
Cc1cc(N=Cc2c(O)n(-c3ccc4c(c3)OCO4)c(=O)c3ccccc23)ccn1,9%
CCN(C(=O)CN1C(=O)S/C(=C\c2ccc(F)cc2)C1=O)C1CCS(=O)(=O)C1 (centres undefined),-6%
CCc1ccc(-n2c(SCC(=O)Nc3cccc(S(=O)(=O)NC4=NCCCCC4)c3)nc3ccccc3c2=O)cc1,-4%
C=C1CCN(c2ccc(C(=O)O)cc2[N+](=O)[O-])CC1,-7%
O=C(NC1CCN(S(=O)(=O)c2ccc(F)cc2)CC1)c1ccccc1,-6%
COc1cc(CN2CCN(C(c3ccccc3)c3ccccc3)CC2)cc(OC)c1OC,-10%
Cc1ccc(NC(=O)C2(N(CC(C)C)C(=O)Cn3nnnc3N)CCCCC2)cc1,-8%
CCN(Cc1cc(=O)n2ccsc2n1)c1cccc2ccccc12,13%
CC(C)(C)OC(=O)N1CC=C2C(C#N)=C(N)C(C#N)(C#N)C(c3cccs3)C2C1 (centres undefined),35µM*
Cc1ccc(S(=O)(=O)N(C)C)cc1N,10%
CCCCN(CC)CCCNC(=O)c1cc2c(=O)oc3ccc(C)cc3c2s1,-2%
Cc1ccc(C(=O)NCC(=O)OCC(=O)c2cccc3ccccc23)cc1,u
Cc1cc2c(cc1C)C(=O)C(=O)N2,-6%
COC(=O)c1c(C(=O)OC)c(-c2ccc(OC)cc2)n2c1CS(=O)(=O)C2,-3%
CCOC(=O)C1=C(C)N(CC(C)C)C(=O)C1,4%
COc1ccc(/C=N/c2oc(C)c(C)c2C#N)c(OC)c1,10%
CCN1CCN(c2cc(C)c3cc(NC(=S)N4CCN(c5ccccc5)CC4)ccc3n2)CC1,-10%
CCn1c(O)c(C=Nc2ccccc2)oc1=S,5%
CCOc1cccc(OCCCOc2ccccc2)c1,-10%
CCc1cccc(NC(=O)COC(=O)/C=C/c2cccs2)c1,-28%
O=C(O)c1cccc(Oc2ncnc3sc4c(c23)CCCC4)c1,-19%
Nc1cccc(S(=O)(=O)c2cccc(N)c2)c1,9%
O=C(Nc1ccc(Br)cc1F)C1CCN(c2nc3ccccc3[nH]2)CC1,14%
CSc1nc(C)cc(OCCNS(=O)(=O)c2ccc(C)cc2)n1,-10%
Cc1ccc(S(=O)(=O)N2CCCCC2)cc1NC(=O)C1CC(=O)N(Cc2ccccc2)C1 (centres undefined),-7%
O=C(CN1C(=O)C2C3C=CC(C4CC34)C2C1=O)Oc1ccccc1 (centres undefined),19%
CN(C(=O)CSc1nc2ccc(NC(=O)c3ccc(F)cc3)cc2s1)c1ccccc1,3%
COC(=O)c1ccc(COC(=O)c2cnccn2)cc1,0%
O=C(OCC(=O)N1CCN(c2ccccc2)CC1)c1nc(Cl)ccc1Cl,-9%
CCOC(=O)C1(C)Oc2ccccc2C(C(=O)OC)=C1C(=O)OC (centres undefined),u
COCc1cc(C)n(CC(=O)Nc2cccc(C)c2)c(=O)c1C#N,11%
COc1ccc(C2=CC3=C(Br)C(=O)C(C)(OC(=O)c4ccc(Cl)nc4)C(=O)C3=CO2)cc1 (centres undefined),-8%&-17%
COc1cc(/C=C(\C#N)c2nc3ccc(C)cc3[nH]2)cc([N+](=O)[O-])c1O,u
Cc1[nH]n(-c2ccccc2)c(=O)c1/C=N/O,-23%
CC(=O)Nc1ccc(NC(=O)C(c2ccccc2)c2ccccc2)cc1,15%
CS(=O)(=O)N1c2ccccc2[C@]2(Br)C[C@H]3C(=O)N[C@@H](Cc4ccccc4)C(=O)N3[C@H]12,-14%
Cc1occc1C(=O)NCc1cccs1,1%
Cc1oc(-c2ccccc2)cc1C(=O)Nc1ccc(N(C)C)cc1,4%
CC1CCN(c2ccc3c(c2)S(=O)(=O)c2ccccc2C3=O)CC1,4%
Cc1nnc(SCC(=O)N2CCN(C(=O)c3ccco3)CC2)n1C,12%

# Next results
Molecule,VDR inh
Cn1nc(C(C)(C)C)c([N+](=O)[O-])c1C(=O)NCCO,u
COc1ccccc1NC(=O)c1ccc2c(c1)N(CC#N)C(=O)C(C)(C)O2,10%
CC(C)(C)c1ccc(OCC(=O)N2CCCCCC2)c(Br)c1,9%
Cc1ccc(N(CC(=O)N2CC(=O)Nc3ccccc32)S(=O)(=O)c2ccc3c(c2)OCCO3)cc1,-7%
CCOC(=O)/C(C#N)=C\C=C1C=CN(C)C=C1,-5%
O=C1CC(=C2c3ccccc3-c3ccccc32)C(=O)N1CCN1CCN(c2cccc(Cl)c2)CC1,19%
Cc1nn(-c2ccccc2)c(C)c1/C=N/O,-11%
CN(C)c1ccc(-c2nnc(-c3cccs3)o2)cc1,-9%
Cc1cccc(CCNC(=O)CCS(=O)(=O)c2cc3c(cc2Cl)NC(=O)CO3)c1,5%&4%
O=C(N/C(=C\c1cccc([N+](=O)[O-])c1)C(=O)N1CCCCC1)c1cccs1,5%
CCC(O)(CC)C(=O)N/N=C/c1cc(Br)cc(Br)c1O,4%
CCOc1ccc(-c2nnn(CC(=O)Nc3ccccc3OC)n2)cc1OCC,-2%
CN(CC(=O)Nc1ccc(N2CCOCC2)cc1)CC(=O)Nc1ccc([N+](=O)[O-])cc1Br,13%
COc1ccc(NC(=O)c2sccc2C)c([N+](=O)[O-])c1,12%
CCCNC(=O)c1cc(-c2ccc(Br)cc2)on1,-6%
c1ccc(-c2ccc(C3=Nn4c(Cn5nnc6ccccc65)nnc4SC3)cc2)cc1,u
Cc1nnc(SCC(=O)n2c3c(c4ccccc42)CCCC3)s1,3%
COc1ccc(NC(=O)CSc2ccccn2)cc1,6%
COc1ccc2c(c1)CCc1c(C(=O)N3CCc4ccccc4C3)noc1-2,-9%
COc1ccc(NC(=O)CN(C)C(=O)CN2C(=O)c3ccc([N+](=O)[O-])cc3C2=O)cc1,5%
NNC(=O)CNC(=O)c1ccccc1F,3%
Nc1nc(COC(=O)C2CC(=O)N(CCc3ccccc3)C2)nc(Nc2ccccc2)n1 (centres undefined),10%
Clc1ccc(OCc2nn3c(-c4ccncc4)nnc3s2)cc1,-8%
COc1ccc(NC(=O)CSc2ccc(-c3ccco3)nn2)cc1,-16%
O=c1[nH]c(Cc2ccccc2)nc2ccccc12,-19%
COc1ccc(NCc2ccccc2-c2nnc(-c3ccccc3)o2)cc1Cl,7%
Cc1cc(C)cc(NC(=S)N2CCC(NC(=O)c3ccccc3C)CC2)c1,-1%
CC1=C(c2ccc(Cl)cc2)[N+](=O)C(C)(C)N1[O-],-7%
CC1CCN(C(=O)c2[nH]cnc2C(=O)Nc2ccccc2)CC1,-6%
O=C1COc2ccc(C(=O)COC(=O)C3CCN(S(=O)(=O)c4cccs4)CC3)cc2N1,-16%
Cc1noc(Cn2c(=O)c3cc4c(cc3n(CC(=O)Nc3ccccc3Br)c2=O)OCO4)n1,9%
CNC1(C)C2CCC(C2)C1(C)C (centres undefined),0%&0%
Fc1cccc(Cl)c1C1Nc2cccc3cccc(c23)N1,u
O=C(Nc1cccnc1)c1ccc(COc2ccccc2Br)o1,19%
CCN(CC)C(=O)CSc1nnc(-c2ccccn2)n1-c1ccc(C)c(C)c1,-3%
Cc1ccc(C(=O)N/C(=C\c2cn(C)c3ccccc23)C(=O)N2CCN(C)CC2)cc1,-21%
Cc1ccccc1NC(=O)CN1CCC(NC(=O)Nc2ccccc2)CC1,9%
N#Cc1ccsc1NC(=O)CN(Cc1ccccc1)Cc1ccccc1,-4%
Cc1ccc(N2CCN(S(=O)(=O)N(C)C)CC2)c(C)c1,11%
COc1cccc(-c2noc(C3CCCN(C(=O)c4ccccc4OC)C3)n2)c1 (centres undefined),7%
O=C(COC(=O)CNS(=O)(=O)c1c(Cl)cccc1Cl)Nc1ccccc1Sc1ccccc1,9%
O=C(Cc1cccs1)N(c1ccc(Cl)cc1)C1C=CS(=O)(=O)C1 (centres undefined),-4%
Cc1ccc(-c2nc3ncccc3o2)cc1NC(=O)c1ccco1,-8%
CCC1=C/C(=C/N(C)c2ccccc2)C(=O)S1,u
CCOC(=O)c1nn(-c2sc(C(=O)OC)c(C)c2C(=O)OC)cc1O,-13%
O=c1c2[nH]c3ccccc3c2ncn1Cc1ccco1,2%
COc1ccccc1OCC(=O)Nc1cccc(-c2nc3ccccc3o2)c1,-2%
O=C(COC(=O)c1ccc2c(c1)C(=O)N(c1cccc3ncccc13)C2=O)c1ccc(Cl)cc1,-1%
CSc1ccc(Nc2nn(-c3ccc(OC(F)(F)F)cc3)nc2C(C)=O)cc1,6%
Cc1ccc(NC(=O)CSc2nc(=O)n(Cc3ccncc3)c3c2CCC3)c(C)c1,-1%
CN(CC(=O)Nc1nc2ccccc2s1)S(=O)(=O)c1ccccc1,19%
COc1ccc(Cl)cc1NC(=O)CSc1cn(CC(=O)N2CCCC2)c2ccccc12,7%
COC(=O)c1ccc(CSc2nnc(-c3c[nH]c4ccccc34)n2C)o1,-14%
c1ccc(-c2cc(N3CCCCC3)c3ccccc3n2)cc1,3%
CC(CCC(=O)O)C1CCC2C3CCC4C[C@H](O)CCC4(C)C3CC(=O)C12C (some centres undefined),-7%
O=C(Oc1ccccc1)N1CCN(c2ccc(F)cc2)CC1,-1%

# Further compounds follow:
Molecule,VDR inh
CCOC(=O)N1CCN(C(=O)c2c(-c3c(Cl)cccc3Cl)noc2C)CC1,-19%
CC(=O)c1ccc(-c2cccs2)s1,13%
O=C(COC(=O)Cn1cnc2ccccc21)Nc1cccc(S(=O)(=O)N2CCOCC2)c1,-12%
COc1cc(C(=O)Nc2cc(S(=O)(=O)N3CCOCC3)ccc2N2CCN(C)CC2)cc(OC)c1OC,28%
Cc1ccccc1-c1nnc(SCCOc2ccc3c(C)cc(=O)oc3c2)o1,-1%
Cc1cc(C)nc(-n2nc(C)cc2Nc2ccccc2)n1,12%
O=C(O)c1sccc1Oc1ccc(NS(=O)(=O)c2ccccc2)cc1,-4%
CCCOC(=O)c1ccc(NC(=O)C2CCCO2)cc1 (centres undefined),2%
O=C(Nc1cccc(Cl)c1Cl)c1cc(S(=O)(=O)NCCc2ccccc2)ccc1F,-4%&-16%
CCOC(=O)c1ccc(-n2[nH]c(-c3ccccc3)cc2=O)cc1,-12%
COc1ccc(OC)c(NC(=O)COc2ccc(S(=O)(=O)NC(C)C)cc2)c1,-8%
O=C1CC(=O)N2N=C(c3ccc([N+](=O)[O-])cc3)SC2=N1,-3%
S=C(NCCCc1ccccc1)Nc1ccccc1Cl,-15%
CCOc1ccc(-n2c(SCc3nc(-c4ccc(C)cc4)no3)nnc2-c2ccncc2)cc1,-4%
Cc1cc(N(C)C)ccc1[N+](=O)[O-],-4%
COc1ccc(NC(=O)C2CCN(S(=O)(=O)c3ccc4c(c3)NC(=O)C(C)S4)CC2)cc1 (centres undefined),-8%

# Quoted at random: four compounds from above
Molecule,VDR inh
COc1ccc(NC(=O)C2CCN(S(=O)(=O)c3ccc4c(c3)NC(=O)C(C)S4)CC2)cc1 (centres undefined),-8%
CCOc1ccc(-n2c(SCc3nc(-c4ccc(C)cc4)no3)nnc2-c2ccncc2)cc1,-4%
Cc1cc(N(C)C)ccc1[N+](=O)[O-],-4%
CCOC(=O)c1ccc(-n2[nH]c(-c3ccccc3)cc2=O)cc1,-12%

# (cont.)
Molecule,VDR inh
O=C(Nc1cccnc1)c1ccc2c(c1)OCO2,-9%
CCC1(c2ccc(F)cc2)NC(=O)N(CC(=O)N2CCN(C(=O)c3ccco3)CC2)C1=O (centres undefined),8%
O=C(OCc1nc2scc(-c3ccccc3)c2c(=O)[nH]1)c1cc([N+](=O)[O-])ccc1Cl,-28%
Nc1nc2[nH]cc(CCc3ccc(C(=O)NC(CCC(=O)O)C(=O)O)cc3)c2c(=O)[nH]1 (centres undefined),3%
COC(=O)c1ccc(NC(=S)NC2CCCCC2C)cc1 (centres undefined),-2%
Cc1ccc(C(=O)N/N=C/c2c[nH]c3ccccc23)o1,-7%
Cc1ccccc1S(=O)(=O)Nc1nc2ccccc2nc1N1CCOCC1,-7%

# Some of the compounds tested; count on the stated rates, not on these rows.
